GIV Gai3 FP: inhibitors of GIV peptide binding to Galpha-i3, primary screen, biochemical, fluorescence polarization, FITC-GIV GBA peptide, rat Galphai3; percent of control (FP), % (test concentration not listed); actives 0.42% (n = 210,000); Guanine nucleotide-binding protein G(i) subunit alpha-3 (Rattus norvegicus), P08753; 90 min; hits give low values; scaled: aluminum fluoride 0%, vehicle 100%; AID 1224905, 2016;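 active = replicate mean at 85% of control or lower, very high polarization wells dropped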;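 also: wells of about 15 µL received 100 nL stock; the first replicate is given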
Target sequence (P08753 whole entry, looked up): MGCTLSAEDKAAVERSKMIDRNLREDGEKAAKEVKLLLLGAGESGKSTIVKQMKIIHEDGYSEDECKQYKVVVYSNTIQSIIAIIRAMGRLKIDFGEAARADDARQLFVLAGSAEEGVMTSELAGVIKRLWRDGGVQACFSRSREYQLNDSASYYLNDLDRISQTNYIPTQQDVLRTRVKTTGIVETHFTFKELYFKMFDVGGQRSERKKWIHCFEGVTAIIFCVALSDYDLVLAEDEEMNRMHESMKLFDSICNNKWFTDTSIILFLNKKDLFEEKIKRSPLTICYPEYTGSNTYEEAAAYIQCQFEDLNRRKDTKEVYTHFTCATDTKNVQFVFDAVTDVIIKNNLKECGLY
Starred values were filed as active, the others as inactive.

GIV Gai3 FP,SMILES
107.4,O=c1/c(=C/c2cccc([N+](=O)[O-])c2)sc2nnc(-c3ccccc3Cl)n12
99.7,CCC(=O)c1ccc(Oc2nc3ccccc3n3c(CC)nnc23)cc1
106.3,CCOC(=O)c1sc(NC(=O)C(C)Sc2nnc(CNC(=O)Cc3ccccc3)n2C)c(C(=O)OCC)c1C (centres undefined)
104.8,Cc1cn(C)c(CC(=O)NC2CCN(Cc3ccccc3)CC2)c1C(=O)O
99.8,Cc1cc(C2CCCN2Cc2ccc(O)cc2)on1 (centres undefined)
104.5,O=C(COC(=O)CC1(CC2=NS(=O)(=O)c3ccccc3N2)CCCC1)Nc1ccccc1
102.1,COc1cc(OC)c(C2Nc3ccccc3NC3=C2C(=O)CC(c2ccccc2Cl)C3)cc1OC (centres undefined)
98.3,O=C(Oc1ccc2cnccc2c1)c1cn(-c2ccccc2)c(=O)c2ccccc12
105.5,CC1(C)CC(=O)C2=C(C1)Nc1ccc3ccccc3c1C2c1cccc(I)c1 (centres undefined)
105.3,COc1ccc(-n2c(=S)[nH]c3c(sc(=S)n3-c3ccccc3)c2=O)c(OC)c1
108.9,C=CCSC1=NC2(CC(c3ccccc3)Oc3cc(O)ccc32)CC(C)(C)N1 (centres undefined)
97.6,COC(=O)c1ccc(NC(=O)N2CCOc3ccc(COCc4ccccc4Cl)cc3C2)cc1
104.0,Cc1ccc(NC(=O)c2sc3nc(C)nc(N4CCN(C)CC4)c3c2C)c(C)c1
108.5,COc1cc(OC)cc(C(=O)NCc2nnc(SCC(=O)Nc3nccs3)n2-c2cc(OC)ccc2OC)c1
100.0,Cc1cc2c(c(=O)o1)C(c1ccc(OC(=O)N3CCOCC3)cc1)C(C#N)=C(N)O2 (centres undefined)
95.9,Cc1nn(-c2nc3ccccc3n2C)c2c1C(c1ccccc1)CC(=O)N2 (centres undefined)
150.1,O=C1/C(=C/c2ccc(-c3ccc(Br)cc3)o2)C=C(c2ccccc2)N1c1ccc2ccccc2c1
108.7,COc1ccc(OC)c(C2C3=C(Nc4c2c(=O)[nH]c(=O)n4C)c2ccccc2C3=O)c1 (centres undefined)
106.6,O=c1c2nnc(SCc3ccccc3)n2ccn1-c1ccc(Br)cc1
107.6,O=C(NCc1ccco1)/C(=C/c1ccccc1)NC(=O)c1ccccc1
99.1,CCOC(=O)C1=C(C)NC2=C(C(=O)C(C(=O)OCC)C(c3cccc(OC)c3)C2)C1c1ccc(N(CC)CC)cc1 (centres undefined)
103.1,Cc1[nH]c2c(C(=O)NCc3ccccc3)c(C)sc2c1C
105.8,COc1cc(C2NC(=O)NC(C)=C2C(=O)OCc2ccc3c(c2)OCO3)cc(OC)c1OC (centres undefined)
103.1,O=C(NCC1CCCO1)C1(c2ccc(NS(=O)(=O)c3ccc4c(c3)CCCC4)cc2)CC1 (centres undefined)
103.7,N#CC1=C(N)Oc2n[nH]c(-c3ccncc3)c2C1c1cc2c(cc1Br)OCO2 (centres undefined)

Next section, starting with the last six of the part before.
GIV Gai3 FP,SMILES
107.6,O=C(NCc1ccco1)/C(=C/c1ccccc1)NC(=O)c1ccccc1
99.1,CCOC(=O)C1=C(C)NC2=C(C(=O)C(C(=O)OCC)C(c3cccc(OC)c3)C2)C1c1ccc(N(CC)CC)cc1 (centres undefined)
103.1,Cc1[nH]c2c(C(=O)NCc3ccccc3)c(C)sc2c1C
105.8,COc1cc(C2NC(=O)NC(C)=C2C(=O)OCc2ccc3c(c2)OCO3)cc(OC)c1OC (centres undefined)
103.1,O=C(NCC1CCCO1)C1(c2ccc(NS(=O)(=O)c3ccc4c(c3)CCCC4)cc2)CC1 (centres undefined)
103.7,N#CC1=C(N)Oc2n[nH]c(-c3ccncc3)c2C1c1cc2c(cc1Br)OCO2 (centres undefined)
97.6,CCOC(=O)c1[nH]c(C)c(CN(C(=O)Nc2ccc(OCC)cc2)C2CCCCC2)c1C
99.9,O=C(CN1C(=O)CC(c2cccc(Cl)c2)=Nc2cccnc21)Nc1ccc2c(c1)OCO2
105.5,CCOC(=O)c1sc(NC(=O)c2cc3nc(-c4ccc(OC)c(OC)c4)cc(C(F)(F)F)n3n2)nc1C
103.0,CN(CCNc1ncnc2onc(-c3ccc(F)cc3)c12)Cc1ccccc1
104.7,CCN1CCN(Cc2c(C(=O)OC(C)C)nnn2-c2nonc2N)CC1
106.4,CCCOc1ccc(-c2c3c(=O)c4ccccc4c3nc3c2c(=O)c2ccccc23)cc1
102.4,CCOc1ccccc1NC(=O)c1cc(S(=O)(=O)N2CCN(c3cc(C)ccc3C)CC2)ccc1F
119.0,CCN1C(=O)/C(=C2/C=Cc3ccccc3N2CC)S/C1=N\c1ncn[nH]1
103.8,O=C(N/N=C/c1ccc(Sc2nnc(-c3ccccc3)n2-c2ccccc2)o1)c1ccco1
107.9,Cc1c(NC(=O)/C=C/c2ccccc2)c(=O)n(-c2ccccc2)n1C
106.7,COc1cc(-c2nc3sc4c(c3c(=O)[nH]2)CCCC4)ccc1OCCSc1ccc(C)cc1
117.8,CN1CCc2nc(SCC(=O)OCc3ccccc3)c(C#N)c(-c3ccccc3)c2C1
121.7,Cc1cc(N2CCN(C(c3ccccc3)c3ccccc3Cl)CC2)n2c(nc3ccccc32)c1C#N (centres undefined)
104.1,Cc1ccc(-c2nc3ccccc3c3nnc(SCC(=O)NC(C)(C)C)n23)cc1
107.9,CCCn1cnc2sc(C(=O)N3CCC(C(=O)OCC)CC3)c(C)c2c1=O
102.4,O=c1ccn(-c2cccc(F)c2)nc1-c1nc(-c2cccc(Cl)c2)no1
105.6,COc1cc(/C=N/NC(=O)c2nnn(-c3nonc3N)c2CN2CCCCCC2)cc(Br)c1O
102.2,CCC1CCCCN1S(=O)(=O)c1cc(-c2cc(C)[nH]n2)sc1C (centres undefined)
104.0,O=S(=O)(c1ccccc1)N1CCC2(CC1)NCCN=C2NCc1ccc2c(c1)OCO2
113.0,Fc1ccc(-c2nc3cc(F)c(Cl)cc3nc2-c2ccc(F)cc2)cc1
106.7,CN(Cc1ccccc1)C(=O)C1CCN(S(=O)(=O)c2ccc3c(c2)sc(=O)n3C)CC1
103.5,CCOc1ccccc1NC(=O)c1c(NC(=O)c2ccccc2C)sc2c1CCCCC2
108.9,CCCS(=O)(=O)c1c(S(=O)(=O)CCC)c2ccccn2c1C(=O)N/N=C/c1ccncc1
106.7,CCc1ccc(NC(=O)C(=O)NCCN2CCN(S(=O)(=O)c3ccccc3)CC2)cc1
102.3,O=C(CNS(=O)(=O)c1ccc2c(c1)CCN2C(=O)N1CCCC1)N1CCN(c2ccccc2)CC1

Some values from the entries so far.
Under GIV Gai3 FP, CN(Cc1ccccc1)C(=O)C1CCN(S(=O)(=O)c2ccc3c(c2)sc(=O)n3C)CC1 reads 106.7
Under GIV Gai3 FP, Cc1c(NC(=O)/C=C/c2ccccc2)c(=O)n(-c2ccccc2)n1C reads 107.9

Remaining list, next part
GIV Gai3 FP,SMILES
116.5,CCOC(=O)c1nnn(-c2nonc2N)c1CN1CCCCC1C (centres undefined)
105.1,CN(C)C1N(C(=O)c2ccccc2Br)N=C2c3ccccc3S(=O)(=O)N21 (centres undefined)
104.1,O=c1c2scc(-c3ccc(F)cc3)c2ncn1Cc1ccccn1
112.5,O=C1NC2(O)C(=O)c3ccccc3C2(O)N1 (centres undefined)
111.7,Cc1cc(-c2ccc3c(c2)CCN3C(=O)C2CCCO2)on1 (centres undefined)
98.2,COC1OC(COC(c2ccccc2)(c2ccccc2)c2ccccc2)C(OC(C)=O)C(OC(C)=O)C1OC(C)=O (centres undefined)
97.7,CC(C)(C)c1ccc(C(=O)N2CCN(Cc3cc(=O)n4nc(-c5ccccc5Cl)sc4n3)CC2)cc1
113.0,CCOc1ccc2c(c1)C(=NNC(=O)c1ccncc1)c1cc(OCC)ccc1-2
99.1,Cc1ccc(C(=O)NCCOc2ccc(-c3ccccc3)nn2)cc1C
101.7,C=CCNC(=O)C12CC3CCC1(C)C3(C)CO2 (centres undefined)
98.9,Cn1ccc2c(SCC(=O)N3CCN(c4ccc(F)cc4)CC3)nccc21
111.7,Cc1ccc(Nc2nc3nonc3nc2NCCO)cc1
98.8,O=C(NCCc1cscn1)[C@H]1CSCN1C(=O)c1ccc(Br)o1
89.3,CCN1c2ccccc2C(=O)NC12CCN(C(=O)NCCc1ccccc1)CC2
105.8,N#CC1=C(SCC(=O)Nc2ccc(Br)cc2)NC(=O)CC1c1cccs1 (centres undefined)
119.4,CCOc1ccc(NC(=O)c2c(NC(=O)C(F)(F)F)sc3c2CCC3)cc1
108.5,COc1cc(/C=C\C(=O)Nc2c3c(nn2-c2ccc(Cl)cc2)CSC3)cc(OC)c1OC
99.4,CC(C)NC(=O)c1n[nH]c2c1CCCCCC2
101.0,Cc1nc(-c2csc(S(=O)(=O)Nc3cccc(Cl)c3)c2)no1
105.9,CC1CCc2[nH]nc(C(=O)NCC3CCCO3)c2C1 (centres undefined)
95.7,O=C(c1csc(C(=O)N2CCCC2)n1)N1CCSCC1
110.0,Cc1ccc2c(c1)c1c3n2CCN(CC(O)COc2ccccc2C)C3CCC1 (centres undefined)
110.7,O=c1[nH]cnc2c1nc(N1CCN(CCO)CC1)n2C1OC(CO)C(O)C1O (centres undefined)
129.8,COc1ccc(C2Oc3c(OC)cccc3C3CC(c4cccnc4)=NN32)cc1 (centres undefined)
109.3,O=C1CSC(c2cccs2)N1c1ccc(Oc2ccccc2)cc1 (centres undefined)

Three successive records already listed:
GIV Gai3 FP,SMILES
116.5,CCOC(=O)c1nnn(-c2nonc2N)c1CN1CCCCC1C (centres undefined)
105.1,CN(C)C1N(C(=O)c2ccccc2Br)N=C2c3ccccc3S(=O)(=O)N21 (centres undefined)
104.1,O=c1c2scc(-c3ccc(F)cc3)c2ncn1Cc1ccccn1

Continuation.
GIV Gai3 FP,SMILES
114.9,CC(C)C(=O)N1c2ccccc2C(N(C(=O)c2ccc(F)cc2)c2ccccc2)CC1C (centres undefined)
106.1,Cc1cc(C)c2c(c1)CC(C)(C)c1nc3c(Cl)cc(C(F)(F)F)cc3nc1-2
102.4,Cn1nnc2c(Nc3ccc(Cl)c(Cl)c3)ncnc21
105.1,COc1cccc(-c2csc(Cc3nc(-c4ccccc4Cl)no3)n2)c1
104.6,O=C(C1CC1)N1CCN(Cc2noc(-c3ccccc3)n2)CC1
105.8,O=C(O)CCCNc1ncnc2c1oc1ccccc12
105.4,CC1=C(C(=O)Nc2ccc(Cl)cc2)C(c2ccco2)C(C#N)=C(SCC(=O)Nc2ccc(Cl)cc2)N1 (centres undefined)
118.7,CCOC(=O)C1=C(CSc2nc(-c3cccs3)ccc2C#N)OC(N)=C(C#N)C1c1ccc(Cl)cc1 (centres undefined)
110.1,Cc1ccc(-n2c(-c3ccco3)n[nH]c2=S)c(C)c1
106.9,O=C(CSc1nc2ccc(NC(=O)CSc3nnnn3Cc3ccccc3)cc2s1)Nc1ccccc1
101.3,O=C(c1ccc(F)c(F)c1)N1CCN(C(=O)c2cc3cc(Cl)ccc3[nH]2)CC1
112.0,CC(=O)Nc1cc(C(=O)N2CCN(S(=O)(=O)c3ccc4c(c3)oc(=O)n4C)CC2)ccc1C
105.5,CCC(=O)Nc1cccc(-c2noc(C3CCCN(C(=O)c4ccc(Cl)cc4)C3)n2)c1 (centres undefined)
97.0,CC(C)c1cc(C2CCCN2C(=O)c2cc(-c3ccc4c(c3)OCO4)on2)on1 (centres undefined)
101.8,CC1C=CCC2C(=O)N(c3cccc(C(=O)OCC(=O)c4ccc(Cl)cc4)c3)C(=O)C12 (centres undefined)
109.8,CN(c1ccc2sc(C(=O)N3CCCC3)cc2c1)S(C)(=O)=O
112.9,C=CCN1C(=O)/C(=C2/SC(C)=C(C)N2CC)SC1=S
121.1,O=C1/C(=C/c2ccc(-c3cc(Cl)ccc3Cl)o2)C=C(c2ccccc2)N1c1cccc([N+](=O)[O-])c1
100.3,Cc1nc(C)c(-c2nc(-c3ccc4c(c3)ncn4C3CCCC3)no2)s1
103.1,Cn1c(SCC(=O)Nc2ccc3c(c2)OCCO3)nc2cc(-c3ccccc3)sc2c1=O
103.6,CC(C)(C)C1CCc2oc3c(cc(NS(=O)(=O)c4ccccc4)c4ccccc43)c2C1 (centres undefined)
115.4,Cc1ccc(-c2ccccc2NC(=O)CSc2nnc3c(n2)-c2cccc4cccc-3c24)o1
102.7,COc1ccc(C(=O)N2CCN(C(=O)c3cc4cc(Br)ccc4[nH]3)CC2)cc1OC
99.9,Cc1ccc(C2CC(=O)Nc3c2c(C)nn3-c2nc3ccc(C)cc3s2)cc1 (centres undefined)
102.2,COCCNC(=O)N1CCN(Cc2nc3cccnc3n2-c2ccccc2)CC1
106.8,CC(NC(=O)C(CC(N)=O)NC(=O)OC(C)(C)C)C(=O)NC1CCN(c2nc3c(cc2F)c(=O)c(C(=O)O)cn3-c2ccc(F)cc2F)C1 (centres undefined)
117.4,COc1ccc(-c2[nH]nc3c2C2(C(=O)Nc4ccccc42)C(C#N)=C(N)O3)cc1OC (centres undefined)
103.3,CCc1nc(OC2CC(C)(C)Oc3ccc(OC)cc32)c2oc3ccccc3c2n1 (centres undefined)
104.9,COc1ccc(OC)c(C2C=C(Nc3ccccc3)C(=O)N2c2ccccc2)c1 (centres undefined)
103.7,O=C(NC1CCN(C(=O)C2CCCC2)C1)c1cccs1 (centres undefined)
101.1,O=C(NCc1ccc(S(=O)(=O)N2CCCC2)s1)C1(c2ccccc2)CC1
116.7,CCOC(=O)c1c(CN2CCOCC2)n(C)c2cc(Br)c(OC)cc12
98.7,CC(C)c1ccc(C(=O)CSc2n[nH]c(-c3ccncc3)n2)cc1
128.1,CC(=O)N(C)c1ccc(NC(=O)COc2ccc3ccccc3c2)cc1
102.6,Cc1ccc(CNC(=O)c2ccc(-n3nc(N4CCCC4)ccc3=O)cc2)cc1
109.7,COc1cc(/C=C2/SC(N)=NC2=O)ccc1OCc1ccccc1F
98.6,COc1ccc(COC(=O)C2=C(C)NC(=O)NC2c2ccc(F)c(Br)c2)cc1 (centres undefined)
104.7,O=[N+]([O-])c1ccc(C2=Nc3ccccc3NC(c3ccc(F)cc3)C2)cc1 (centres undefined)

The list is partial; the hit share may differ from the screen's.
